High-throughput results deposited in PubChem by Fisher Drug Discovery Resource Center.
NPYLR7 ag: activates Aedes aegypti NPYLR7 receptor | HEK293T NPYLR7/Galpha15, GCaMP6s calcium fluorescence | 270,000 tested, 0.15% active | activation, % at 10 µM; in the data active = activation above about 40%;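 also: 0% = vehicle and 100% = reference agonist at the receptor; some compounds past the cut are filed as inactive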
NPYLR7 ag max-min: second read-out of NPYLR7 ag, no call of its own (marks repeat the call); activation, %; measured here: Max-Min RFU normalised activation; some inactives read as strong as hits;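 span of the calcium signal over five minutes; 0% = vehicle and 100% = native peptide agonist; compound fluorescence can raise it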
* = called active by the depositor; & = joins results of further samples.

no.	SMILES	NPYLR7 ag	NPYLR7 ag max-min
1	CC(C)C(=O)Nc1ccc(S(=O)(=O)NCCCN2CCN(c3ccccc3)CC2)cc1	-9.1	-10.9
2	Cc1ccc(C=NNC(=S)NCCCN2CCOCC2)o1	0.2	-2.0
3	COc1ccc(OC)c(NC(=O)CSc2nc(=O)n(CCN3CCOCC3)c3c2CCCC3)c1	-2.9	3.8
4	CCN1C(=O)NC(c2ccc(Cl)cc2)C(C(=O)OC2CCCCC2)=C1C (configuration not stated)	-8.7	-11.6
5	O=Cc1c(-c2ccccc2)c(C=O)n2ccccc12	-13.2	-19.0
6	COCC(=O)Nc1cnn(-c2cccc(C(=O)N3CCC(c4ccccc4F)C3)c2)c1 (configuration not stated)	3.1	1.5
7	Cc1cccn2c(=O)c3cc(C(=O)NCC4CCCO4)n(C)c3nc12 (configuration not stated)	6.3	9.2
8	CN(CCc1ccccn1)c1ncccc1CNC(=O)c1ccoc1	3.8	1.0
9	CCc1nc2ccc(C(=O)N3CCN(c4ccccc4)CC3)cn2c1N(C=O)Cc1ccc(OC)cc1	2.8	15.8
10	COc1ccccc1-c1c(C)nn2c(N3CCCC3)cc(C)nc12	2.0	10.4
11	CCN(CC)C(C)CNC(=O)c1cccc(C)c1I (configuration not stated)	5.1	7.1
12	O=C(NC1CC2CCC(C1)N2CCc1ccccc1)c1ccc(F)c(C(F)(F)F)c1 (configuration not stated)	5.1	9.0
13	O=C1CC(c2ccccc2)CC2=Nc3ccccc3NC(c3coc4ccccc4c3=O)C12 (configuration not stated)	0.0	1.0
14	Oc1cc(OCCN2CCCCC2)ccc1-c1[nH]ncc1-c1ccccc1	2.3	-1.6
15	COCC(=O)Nc1cccc(-n2ccc(-c3cccnc3)n2)c1	1.3	-0.6
16	O=C(Cn1cc2c(n1)CCCCC2)NC1CCCCCC1	-4.2	-1.9
17	O=C(Nc1ccc2c(c1)CN(C(=O)/C=C/c1cccnc1)CC2)c1ccncc1	0.4&7.7	-2.6&4.1
18	CC(C)OCCCNC(=O)c1ccc(-c2cc(-c3ccc(N4CCCCC4)cc3)n[nH]2)cc1	2.8	-3.7
19	O=C1CCCN1CC1CCCN(c2ncnc3c2CCNC3)C1 (configuration not stated)	7.9	5.5
20	c1csc(CNc2ncnc3c2nc2n3CCCCC2)c1	3.1	-2.3
21	CC(C)CN(CC(=O)N1CC(=O)N(c2ccc(Cl)cc2)C1)C(=O)Nc1ccccc1C(F)(F)F	3.6	12.3
22	c1cc(CN2CCC(n3cc(CN4CCCC4)nn3)CC2)cs1	-1.4	-7.7
23	CN(C)CCn1cnc2c1c(=O)n(C)c(=O)n2C	6.8	4.8
24	CCOC(=O)C1CCCN(C(=O)c2cccc(CSc3nc(C)c(C)c(N4CCN(C/C=C/c5ccccc5)CC4)n3)c2)C1 (configuration not stated)	-14.4	-20.1
25	CC(=O)C(C)n1c(=O)c2c(nc3n(-c4ccc(F)cc4)c(-c4ccccc4)cn23)n(C)c1=O (configuration not stated)	-1.9	-1.0
26	CC(C)C(=O)Nc1ccc(SCC(=O)N2CCOCC2)nn1	-4.4	-4.1
27	COc1ccc(N2CCN(Cc3cn4c(-c5ccc(Br)cc5)nnc4s3)CC2)cc1	0.8	36.3
28	N#Cc1ncn(CC(=O)N2N=C(C=Cc3ccco3)CC2c2ccco2)n1 (configuration not stated)	0.6	-2.2
29	CNC(=O)c1ccsc1NC(=O)c1ccc(Br)s1	4.9	1.9
30	COc1cccc(N2CCN(C(=O)c3cccc(C)c3)C(C)C2=O)c1 (configuration not stated)	11.5	10.4

The final four entries of the section before come first, to join the parts:
no.	SMILES	NPYLR7 ag	NPYLR7 ag max-min
27	COc1ccc(N2CCN(Cc3cn4c(-c5ccc(Br)cc5)nnc4s3)CC2)cc1	0.8	36.3
28	N#Cc1ncn(CC(=O)N2N=C(C=Cc3ccco3)CC2c2ccco2)n1 (configuration not stated)	0.6	-2.2
29	CNC(=O)c1ccsc1NC(=O)c1ccc(Br)s1	4.9	1.9
30	COc1cccc(N2CCN(C(=O)c3cccc(C)c3)C(C)C2=O)c1 (configuration not stated)	11.5	10.4
31	O=C(Nc1ccccc1Oc1ccccc1)N1CC(=O)N2CCc3c(F)cccc3C2C1 (configuration not stated)	0.4	-2.8
32	COc1ccc(-c2cnc3ncnn3c2N2CCCN(C(=O)Nc3cccc(OC)c3)CC2)cc1	3.8	3.9
33	Cc1nc(SCCC(=O)N2CCC(C#N)(c3ccccc3)CC2)n(Cc2ccc(Cl)cc2)c1C	7.2	3.0
34	O=C(CCC1CCCN(C(=O)c2ccc3nc[nH]c3c2)C1)N1CCN(c2ccccn2)CC1 (configuration not stated)	4.0	4.4
35	Cc1ccc(C)c(-n2[nH]c(-c3ccccc3F)c(-c3ccc(NC(=O)c4ccc(F)cc4)cc3)c2=O)c1	18.0	16.6
36	COCCOc1ccc(CCC(=O)N2CCN(c3ncccn3)CC2)cc1NS(=O)(=O)c1ccc(Cl)cc1	0.8	-4.0
37	Cc1cc(C(=O)N2CCN(C(c3ccccc3)c3ccccc3)CC2)no1	1.2	-3.3
38	O=C(NCCCn1ccccc1=O)c1ccc(C2SCCCS2)cc1	0.2	-0.4
39	O=c1ccc(-c2ccncc2)nn1CCCNS(=O)(=O)c1cccs1	9.5	2.5
40	CCc1cc(Cn2nc(CC3CCNCC3)n(CC)c2=O)on1	25.1	9.9
41	O=C(O)c1cc(-c2ccccc2)nc2ccccc12	-1.4	-8.8
42	COc1cccc(COC2CCCN(C(=O)c3ccc(Cl)cc3)C2)c1 (configuration not stated)	-2.8	3.6
43	O=C1NCC(C(=O)N2CCc3c(ccc(Cl)c3Cl)C2)N1 (configuration not stated)	23.7	23.0
44	COc1ccc(Nc2cc3c(cn2)cc(-c2cnn(C)c2)n3Cc2ccccc2)cc1OC	-10.9	-15.0
45	CNc1cncc(-c2ccc(N)cc2)n1	0.7	-0.3
46	Cc1ccc(C(=O)N2CCCC(N3CCN(c4ccccc4C)CC3)C2)c(=O)[nH]1 (configuration not stated)	12.5&-4.6	2.2&-3.8
47	CCN(CC)CCN(C(=O)CCS(=O)(=O)c1ccccc1)c1nc2cc3c(cc2s1)OCO3	-4.6	-6.8
48	Cc1ccccc1-c1cc(C(=O)NCc2ccc(Cl)cc2)c2ccccc2n1	-3.6	-5.2
49	Cc1ccc(C)c(C(=O)OC(C(N)=O)c2ccccc2)c1 (configuration not stated)	-1.6	-4.3
50	COc1ccc(C2c3cccn3CCN2C(=O)NC(C)(C)C)cc1 (configuration not stated)	4.6	3.9
51	COc1cccc(Cn2ccnc2CN(CC(C)C)C(=O)c2ccco2)c1	18.3	25.6
52	Cn1cccc1CN(Cc1ccco1)C(=O)CN(C(=O)Nc1ccc(F)cc1F)C1CC1	-8.5	-5.4
53	O=C1CC(c2cn[nH]c2-c2cccc(F)c2)c2cc3cn[nH]c3cc2N1 (configuration not stated)	18.5	3.2
54	O=C(C=Cc1ccc([N+](=O)[O-])o1)c1ccc(I)cc1	1.3	-3.0
55	CCOc1ccc(C(=O)Nc2cc(-c3nc4cc(C)cc(C)c4o3)ccc2C)cc1[N+](=O)[O-]	-8.0	-10.9
56	CCOc1ccc(CN(C)C(=O)c2ccccc2SCC(N)=O)cc1	9.2	6.5
57	O=C1CCc2cc(S(=O)(=O)N3CCC4(CCNCC4)C3)ccc2N1	6.9	4.1
58	Cc1cccc(-c2noc(-c3cccnc3N3CCC(C(=O)NCCCN(C)C)CC3)n2)c1	-3.1	-4.7
59	COc1cc(NC(=O)CN2CCC(Oc3ncccn3)CC2)cc(OC)c1	4.1	-2.1
60	Cc1ccc(C(=O)Nn2cnc3c(cnn3C(C)(C)C)c2=O)cc1C	2.1	3.9
61	O=C(CCCc1ccccc1)NCCS(=O)(=O)N1CCN(c2ccccc2)CC1	-0.7	-0.8
62	COc1ccc(NC(=O)Cc2ccc(Cl)cc2Cl)cn1	-7.7	-9.3
63	CCN(C(=O)c1ccc(CNc2ccc(C)cc2)cc1)C1CC1	10.6	4.8
64	COc1cc(Cl)c(C(=O)N2CCOC(COc3ccc4c(c3)CCCC4)C2)cc1OC (configuration not stated)	23.2	21.4
65	N#Cc1nc(COc2ccccc2F)oc1N1CCCC1	2.7	-0.7
66	Cc1ccc(C2c3ccccc3CCN2C(=O)c2ccccc2C(F)(F)F)cc1 (configuration not stated)	20.5	5.4
67	Cc1ccc(NC(=O)CNCc2cc(CC(C)C)on2)c(C)c1	1.0	-0.6
68	COc1cc(COC2CCCN(S(=O)(=O)c3ccc(C)cc3)C2)cc(OC)c1 (configuration not stated)	1.0	9.4
69	Cc1ccc(Nc2nc(NCCCOC(C)C)nc3c2cnn3-c2ccccc2)cc1C	1.2	0.0
70	C(=N/Nc1nc(N2CCCCC2)nc(N2CCCCC2)n1)/c1ccncc1	3.1	-3.8
71	Cc1cc(C)c(C(=O)N2CC=C(c3ccccc3)CC2)c(=O)[nH]1	10.2	-0.8
72	Cc1cccc(N2CCN(C(=O)C3CCC(=O)N(CCc4cccc(F)c4)C3)CC2)n1 (configuration not stated)	13.7	6.9
73	COC(=O)c1ccc(COC(=O)c2ccc(O)cc2O)cc1	2.5	-0.3
74	CCc1cc(Oc2ccc(Cl)c(C)c2)nc(SCc2cc(F)ccc2F)n1	-9.3	-1.3
75	CCCCC(O)CN(CCC)Cc1c(C(C)C)nn(-c2ccc(OC)cc2)c1Oc1ccccc1 (configuration not stated)	-1.0	6.6
76	O=C(CN1CN(c2ccccc2)C2(CCN(C(=O)c3cccc4ccccc34)CC2)C1=O)NCC1CCCO1 (configuration not stated)	2.9	12.8
77	COc1cccc(C(CN2CCN(C(=O)c3c(-c4c(Cl)cccc4Cl)noc3C)CC2)OCc2cccc(Cl)c2)c1 (configuration not stated)	6.7	-0.4
78	O=C(N1CCc2ccccc2C1c1ccccc1Cl)C12CC3CC(CC(C3)C1)C2 (configuration not stated)	21.7	14.4
79	O=c1c2nnc3c(-c4ccccc4)cnn3c2ccn1C1CCCCC1	1.3	2.2
80	CC(C)(C)c1ccc(NC(=O)COc2ccc(-n3ccnc3)cc2)cc1	5.1	2.1
81	CCc1cccc(NC(=O)Nc2ccc(N3CCCCC3)c(C(=O)NCCc3ccccc3)c2)c1	-3.0	5.7
82	Cc1nn(C(=O)c2nn(C)cc2[N+](=O)[O-])c(C)c1Br	13.9	5.9
83	O=c1[nH]c2ccc(S(=O)(=O)N3CCCC3c3nc4ccccc4s3)cc2[nH]1 (configuration not stated)	3.8	3.9
84	O=C(c1cc(COc2ccc3c(c2)CCCC3)on1)N1CC=C(c2ccccc2)CC1	10.6	6.7
85	CCS(=O)(=O)Oc1ccc(Cl)cc1CN(CCN(C)C)C(=O)NC(C)(C)C	-1.0	4.6
86	CCS(=O)(=O)Oc1ccccc1CN(Cc1ccc(F)cc1)C(=O)C(C)C	-4.2	-2.9
87	CN1C(=O)C(=C2C=C(c3ccccc3)OC3=C2CCCC3)C(=O)N(C)C1=O	-9.4	-15.1
88	CN1CCC(C)(C(=O)Nc2cccc3c2CCCC3)C1 (configuration not stated)	2.6	1.3
89	CN(Cc1ccccn1)C(=O)C(OC1CCCC1)c1ccccc1 (configuration not stated)	1.7	0.9
90	CCCCNC(=O)c1cc2nc(-c3ccccc3)cc(C(F)(F)F)n2n1	-9.3	-13.1

Following part:
no.	SMILES	NPYLR7 ag	NPYLR7 ag max-min
91	COc1cc2c(cc1OC)CN(CC(=O)Nc1ccc(N(C)C)cc1)CC2	-13.8	-13.6
92	O=C(CN1CCN(c2ccc(F)cc2)C1=O)NCC(F)(F)F	0.6	-1.6
93	CC1(C(=O)NS(=O)(=O)c2cccc(Cl)c2)CCN1C(=O)CC1CC1 (configuration not stated)	0.8	-1.1
94	COc1cccc(C(=O)N2CCSC2c2cc(OC)ccc2OC)c1 (configuration not stated)	-6.8	-0.1
95	CN(C(=O)Cn1c(-c2cccc(Br)c2)noc1=O)C1CC1	-5.1	-6.3
96	NC1(C(=O)O)CCN(Cc2ccc(OCC(=O)N3CCCCC3)cc2)C1 (configuration not stated)	6.4	-7.5
97	Cc1nc(C(=O)N2CCC(N3C(=O)Cc4ccccc43)CC2)cs1	1.9	1.7
98	COCc1nc(-c2cccc(CN3CCN(C(=O)c4cc(C)nc(Cl)c4)CC3)c2)no1	3.8	14.3
99	CCN(CC)CCNS(=O)(=O)c1sccc1Br	1.2	25.4
100	O=C(CSc1nnc2sc3ccccc3n12)Nc1ccc(F)cc1	-2.8	-1.4
101	Cc1ccn2c(NCc3ccccc3)c(-c3ccc(C(C)(C)C)cc3)nc2c1	10.6	10.1
102	CCOC(=NC(=O)c1cccc(F)c1)N(C)C1CCN(C)CC1	-1.2	0.8
103	COc1ccc(C(=O)NCCCNc2ncccn2)cc1F	11.1	9.1
104	COC1(C)CC(NC(=O)NCc2cccc(-n3cncn3)c2)C1(C)C (configuration not stated)	12.4	6.7
105	COCCN(CC1CCCN(C2Cc3ccccc3C2)C1)C(=O)CN1CCCCC1 (configuration not stated)	6.8&-2.8	6.7&-4.8
106	CC(C)Cn1ccnc(Oc2cccc(Br)c2)c1=O	9.0	5.2
107	CC(=O)c1ccc(N2CCN(C(C)c3ccc(F)cc3)CC2)c(F)c1 (configuration not stated)	17.6	6.4
108	Cc1cnc(C(=O)NCc2nc(-c3ccccc3)no2)cn1	9.3	8.9
109	O=C(NCC(O)c1ccco1)c1c(F)cccc1Br (configuration not stated)	5.9	5.4

Not all compounds are listed (hit frequency here may not be typical).
